HepG2 = HepG2 cell cytotoxicity, dose response, cytotoxicity control, ATP luminescence, cherry-pick, activator set 2 (AID 1053143); HepG2 viability, CellTiter-Glo ATP luminescence, 72 h; AC50 in µM for hits, for the others activity change, negative = cytotoxicity, % at the top dose, mostly 26 µM; 3,400 compounds, 3.7% hits;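 active = fitted AC50 at most twice the highest valid dose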;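 note: 0 = neutral control and -100 = positive control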
Numbers without * were called inactive; [ ] = dose if it differs, or a comment. Not all compounds are listed; count on the stated rates, not on these rows.

SMILES	HepG2
COc1ccc2nc(NC(=O)CCNC(=O)c3ccco3)sc2c1	4%
Cc1occc1C(=O)N/N=C/c1ccc(OCc2ccccc2)cc1	-26%[12 µM]
Cc1cc(C(=O)COc2ccccc2C(N)=O)c(C)n1C1CC1	2%
O=C(/C=C(\Nc1cccc(Cl)c1F)c1ccccc1)c1ccccc1	0%
COc1cccc2cc(-c3ccccc3)c(=O)oc12	-14%
CC(=O)Nc1sc2c(c1-c1nc3ccccc3s1)CN(C(C)C)CC2	12µM*
Cc1cc(C)n2nc(-c3ccc(Cl)cc3)cc2n1	0%
N/C(=N\N=C\c1ccc(O)cc1)c1nonc1N	2%
COc1ccc(C(=O)O/N=C(\N)c2ccccc2)cc1OC	-3%
C=CCn1c(SCC(=O)Nc2ccc3c(c2)OCO3)nnc1-c1cc(Br)ccc1O	-16%
O=C(c1ccc(-c2cccc(Cl)c2Cl)o1)N1CCOCC1	5%
COC(=O)C(C)N1C(=O)S/C(=C/c2cc(C)n(-c3ccccn3)c2C)C1=O (stereo not given)	-4%
O=C(NCCc1c[nH]c2ccccc12)c1cc(Cl)c2c(c1)OCO2	0%
O=C(c1nc2ccccc2s1)N1CCN(c2ccccn2)CC1	19%
COc1ccc(C(=O)NC2=NCCS2)cc1	21%
O=C(COC(=O)C1CC1)Nc1ccc2c(c1)OCO2	-13%
Cc1ccc2c(c1)COc1c3ccc(C(=O)NC(C)C)cc3nn1-2	-12%
COCc1nc(-c2ccc(-c3ccccc3)nc2OC)no1	-25%
COc1ccc(-c2c3c(nc4sc(C(=O)Nc5ccccc5)c(N)c24)CCC3)cc1	3%
O=C(Nc1cccc(Cl)c1Cl)c1csc([C@H]2C[C@H](O)[C@@H](CO)O2)n1	6%
CCCn1cnc2cc(NC(=O)c3cccs3)ccc21	-9%
O=C(Nc1ccccc1O)c1ccc(NC(=O)C2CC2)cc1	19µM*
NC(=O)COC(=O)/C=C/c1ccc2ccccc2n1	-9%
NNc1nc(-c2ccccc2Cl)nc2sc3c(c12)CCCC3	-16%
O=C(Nc1cccnc1)c1cc(-c2ccc(Cl)cc2)on1	-1%
COc1ccc2[nH]c3c(NCCCOC(C)C)ncnc3c2c1	2%[12 µM]
CN(C)S(=O)(=O)c1ccc2nc(NC(=O)c3cccnc3)sc2c1	-8%
O=C(Nc1nccs1)c1ccc(CSc2ccccc2)o1	-2%
CCOC(=O)c1c(-c2ccccc2)nc2ccc(C)cn12	-12%
O=C1/C(=C\c2ccccc2)CCc2c1[nH]c1ccccc21	-15%

8 entries from above, bar-delimited.
SMILES | HepG2
COCc1nc(-c2ccc(-c3ccccc3)nc2OC)no1 | -25%
COc1ccc(-c2c3c(nc4sc(C(=O)Nc5ccccc5)c(N)c24)CCC3)cc1 | 3%
O=C(Nc1cccc(Cl)c1Cl)c1csc([C@H]2C[C@H](O)[C@@H](CO)O2)n1 | 6%
CCCn1cnc2cc(NC(=O)c3cccs3)ccc21 | -9%
O=C(Nc1ccccc1O)c1ccc(NC(=O)C2CC2)cc1 | 19µM*
NC(=O)COC(=O)/C=C/c1ccc2ccccc2n1 | -9%
NNc1nc(-c2ccccc2Cl)nc2sc3c(c12)CCCC3 | -16%
O=C(Nc1cccnc1)c1cc(-c2ccc(Cl)cc2)on1 | -1%

The listing continues.
SMILES	HepG2
COc1ccc(C(=O)Nc2cccc(C)c2)cc1	-27%
O=C(CN(CCc1ccccc1)S(=O)(=O)c1ccc(Cl)cc1)N/N=C/c1ccc2c(c1)OCO2	0%
COc1c(Cl)cccc1-c1cn2ccc(C)cc2n1	-10%
O=C(Nc1nccs1)c1c(O)c2c([nH]c1=O)CCCC2	-9%
O=C(Nc1nnc(C2CC2)s1)c1ccc(Cl)nc1	-22%[12 µM]
Cc1cc(C)nc(N/N=C/c2ccccc2OCc2ccc(Cl)cc2)n1	-11%[12 µM]
C=CCNC(=O)c1ccc2c3n(nc2c1)-c1ccc(C)cc1CO3	-7%
CC(=O)c1ccc(NC(=O)c2ccc(C)c(Br)c2)cc1	1%
Cn1c(SCC(=O)c2ccccc2)nnc1-c1ccco1	0%
O=C(O)c1cccc(CN2C(=O)SC(Nc3cccc4ccccc34)C2=O)c1 (stereo not given)	7%
O=C(Nc1ccc2c(c1)OCO2)N1CCCc2ccccc21	2%
Cc1ccc(Sc2cc(C)nc(-c3ccccn3)n2)cc1	-5%
COc1ccc(Nc2oc(COc3cccc(C)c3)nc2C#N)cc1	-8%
Cc1ccc(-n2c(C)cc(C(=O)COC(=O)c3c(C)noc3C)c2C)cc1	-13%
OCC1(CCOc2ccccc2)CCN(Cc2ccccc2C(F)(F)F)CC1	-1%

Looked up by structure from the entries so far (10):
SMILES	HepG2
Cc1ccc(Sc2cc(C)nc(-c3ccccn3)n2)cc1	-5%
Cn1c(SCC(=O)c2ccccc2)nnc1-c1ccco1	0%
COc1ccc(C(=O)Nc2cccc(C)c2)cc1	-27%
Cc1ccc(-n2c(C)cc(C(=O)COC(=O)c3c(C)noc3C)c2C)cc1	-13%
OCC1(CCOc2ccccc2)CCN(Cc2ccccc2C(F)(F)F)CC1	-1%
O=C(O)c1cccc(CN2C(=O)SC(Nc3cccc4ccccc34)C2=O)c1 (stereo not given)	7%
O=C(Nc1ccc2c(c1)OCO2)N1CCCc2ccccc21	2%
COc1c(Cl)cccc1-c1cn2ccc(C)cc2n1	-10%
O=C(CN(CCc1ccccc1)S(=O)(=O)c1ccc(Cl)cc1)N/N=C/c1ccc2c(c1)OCO2	0%
O=C(Nc1nccs1)c1c(O)c2c([nH]c1=O)CCCC2	-9%

Continuation.
SMILES	HepG2
O=C1c2ccccc2C(=O)C1c1ccnc2ccccc12	11%
COc1cccc(OCC(=O)Nc2ccccc2C(N)=O)c1	-8%
Cc1ccccc1-c1nc(-c2cccnc2)no1	4%
CCOc1ccc(C(=O)NC2CCCCCCC2)cc1	-20%[12 µM]
O=C(Cc1nc2ccccc2[nH]c1=O)c1ccccc1	-14%
CN(C)c1nc(N)nc(-c2nc3ccccc3s2)n1	1%
COc1cc(/C=N/Nc2ccc(Cl)c(C(=O)O)c2)ccc1OC(=O)c1cccs1	-12%
O=C(NC1CCCC1)c1cc(-c2ccc(Cl)cc2)on1	-11%
CCOc1ccc(NC(=O)c2ccc(F)cc2F)cc1	-33%
Cc1cc(C)nc(Nc2nc3ccccc3[nH]2)n1	-14%
COc1ccc(C(=O)/C=C/c2ccccc2OC)c(OC(=O)c2ccc([N+](=O)[O-])cc2)c1	-3%
NC(=O)c1ccccc1OCC(=O)Nc1ccc(Cl)c(Cl)c1	-4%
c1ccc(-c2csc(Nc3ccc4c(c3)OCCO4)n2)cc1	-6%
CCCNC(=O)Nc1cccc(C(=O)OC)c1	-15%
O=C(Nc1ccc(F)c(Cl)c1)c1csc([C@H]2C[C@H](O)[C@@H](CO)O2)n1	10%[12 µM]
Cn1cccc1/C=C1\Cc2ccccc2C1=O	-4%
O=C(Cc1ccccc1)Nc1ccc(N2CCCCC2)cc1	-10%
O=C1C(C=Nc2ccccc2O)=C(O)c2ccccc21	-19%
CCOc1ccc(C2C=C(c3ccccc3)Nc3nnnn32)cc1 (stereo not given)	-8%
CC(=O)N(C)c1ccc(NC(=O)c2ccco2)cc1	-6%
COc1ccc(/C=C/c2nnc(NC(C)=O)s2)cc1	-8%
NC(=O)C1=C[C@H](C2CCCCC2)C[C@H](OCc2ccc(CO)cc2)O1	-6%
COc1ccc2nc(-c3ccc(N)cc3)[nH]c2c1	14%
COc1cccc(N/N=C/c2cccc(Br)c2O)c1	-2%
O=C(COc1ccc(F)cc1Cl)NC1CCCCCC1	-17%
O=[N+]([O-])c1cccc(/C=N/Nc2ccccn2)c1	0%
Cc1onc(-c2ccccc2)c1C(=O)NC1CCC(C)CC1 (stereo not given)	-12%[12 µM]
CCOC(=O)C(CNc1ccc(OCc2ccccc2)cc1)NC(=O)c1ccccc1 (stereo not given)	-11%
COc1ccc(Cn2c(-c3ccc(Cl)cc3)c[n+]3ccccc23)cc1	-7%
COc1cccc2sc(N(C)c3ccccc3)nc12	-9%
CCOc1ccc(-c2nnc(-c3cccs3)o2)cc1	-7%
COc1ccc(O)c(C(=O)CC(=O)c2cccnc2)c1	-12%
CCOC(=O)N1CCC2(CC1)C(C#N)=C(N)Oc1n[nH]c(CSc3ccc(C)cc3)c12	0%
COc1ccc(CNC(=O)COC(=O)CCC(=O)c2cccs2)cc1	-1%
COc1ccc(NC(=O)Nc2ccc(F)c(Cl)c2)cc1	-7%
CC(Cc1cccs1)NC(=O)Nc1ccc(Cl)cc1 (stereo not given)	-13%
O=C(Nc1nnc(C2CCCCC2)s1)c1cccs1	-16%
C=CCSc1nc2c(cnn2-c2ccccc2)c(=O)n1N	-8%
Fc1ccccc1-c1nc(-c2ccccc2)no1	-11%
O=C(Nc1ccc2c(c1)OCCO2)c1cccc(S(=O)(=O)N2CCOCC2)c1	-18%
Cc1cc2c(cc1C)CN(c1ccccc1)C2	-10%
O=C(NCCN1C(=O)C2C3C=CC(C3)C2C1=O)Nc1ccc(Br)cc1 (stereo not given)	-9%
Cc1ccc(-c2cn3c(n2)SCC3)cc1	-2%
Nc1ccc2nc3c(=O)n(C4CCCCC4)c(=O)[nH]c3nc2c1	-6%
CCn1c(C(=O)OC)cc2c1ccn2-c1ccc(F)cc1	0%
CCSc1ccc(NC(=O)c2cccnc2)cc1	-13%
c1ccc2oc(-c3ccn[nH]3)cc2c1	-7%
CCc1sc(C(=O)Nc2ccc3c(c2)OCO3)cc1C	-14%
COCC1CCCN(C(=O)c2cc(COc3ccc(C(C)=O)cc3)on2)C1 (stereo not given)	-22%
O=C(Nc1ccc(-c2ccc3nncn3n2)cc1)C1CCCC1	-8%
Cc1ccc(NC(=O)c2noc3c2CCCCC3)cc1	-10%
CC(C)(C)C(=O)NNC(=O)c1cc2sccc2s1	-8%
O=C(O)CSCc1nc2ccccc2s1	-18%
COc1c(C(=O)NNC(=O)c2ccccc2)csc1Br	4%
O=C(O)c1ccc(N/N=C/C2=Cc3ccccc3OC2)cc1	-7%
COc1ccc(/C=N/Nc2ccccc2C(=O)O)cc1	-15%
COCCn1c(C)cc(C(=O)CSc2nc3ccccc3c(=O)n2Cc2ccco2)c1C	3%
CCOC(=O)c1sc2nc3c(cc2c1N)COC(C)(CC)C3 (stereo not given)	-3%
O=C(NCc1ccccc1)c1cccc(COc2ccccc2Cl)c1	-8%
Cc1ccnc(NC(=O)c2ccc(Br)s2)c1	-24%
Continuation:
SMILES	HepG2
Cc1ccc(SCC(=O)NC(C)(C)C)cc1	-10%
COc1cc(/C=C/C(=O)N2C(=O)c3cccc(N)c3C2=O)cc(OC)c1OC	-13%
Clc1ccc(-c2nc(C3CCCCC3)no2)cc1	-7%
O=c1nc2sc3ccccc3n2c(=O)n1-c1ccc(Cl)cc1	7%
CN(C)c1ccc(N=Nc2cccc(F)c2)cc1	-1%
O=C(NCCc1cnn(-c2ccccc2)c1)c1cc(COc2c(F)cccc2F)on1	-8%
CC(C)CN(C(=O)CCNC(=O)c1ccccc1Cl)C1CCS(=O)(=O)C1 (stereo not given)	-7%
CC(=O)c1ccc2c(c1)Cc1cc(C(C)=O)ccc1-2	-12%
O=C(Nc1cccc(F)c1)Nc1ccc2c(c1)CCC2	-10%
CCOC(=O)N1CCC(N2CCCC(C(=O)c3cc(F)ccc3OC)C2)CC1 (stereo not given)	3%
COc1cccc(NC(=O)c2ccc(OC(F)(F)F)cc2)c1	19%
N/C(=N\OC(=O)c1ccccc1)c1ccn[nH]1	-5%
O=C(Nc1ccc(Cl)cn1)c1ccccc1F	-11%
CC(=O)c1ccc(NC(=O)COC(=O)C2CC3C=CC2C3)cc1 (stereo not given)	22%
CCCCn1c(CN2CCN(C(=O)OCC)CC2)nc2c1c(=O)n(C)c(=O)n2C	-16%

Among those listed so far, these have a cyano group.
SMILES	HepG2
COc1ccc(Nc2oc(COc3cccc(C)c3)nc2C#N)cc1	-8%
CCOC(=O)N1CCC2(CC1)C(C#N)=C(N)Oc1n[nH]c(CSc3ccc(C)cc3)c12	0%

Next part
SMILES	HepG2
CC(SCc1ccccc1)C(=O)Nc1ccccc1 (stereo not given)	-19%
CC(C)Cc1cc(C(=O)Nc2ccc3c(c2)OCO3)no1	-14%
Cc1cc(C(=O)COC(=O)c2ccc(O)cc2O)c(C)n1C(C)C	-6%
COc1ccc2nc(N3CCCCC3)c(C#N)cc2c1	-1%
CCOC(=O)c1ccc(NC(=O)N2CCc3ccccc32)cc1	-22%
O=C1NCC2=C1C(c1ccccc1)Nc1ccccc1N2 (stereo not given)	-11%

Compound activity deposited in PubChem BioAssay by Broad Institute.
